Screening data as filed in PubChem.
Methyltransferases = Primary Screen for Target Class Profiling of Small Molecule Inhibitors of Methyltransferases | purified enzyme, MTase-Glo SAH luminescence; hits give low values | calls only at 40 µM | 3.9% of 25,000 active; active = -50% or lower on at least one of six enzymes; inconclusive = the cases between; inactive = as a rule above -30% on all six;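 note: enzymes were COMT GAMT GNMT HNMT NNMT and PNMT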
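Each enzyme was reacted with SAM and its substrate, with compounds tested once at 40 uM; SAH formed was read by MTase-Glo luminescence.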
Calls only; i = inactive; ? = inconclusive; + = active, no number. % is set by controls: 0 for no effect and ±100 for the full control effect. Some of the compounds tested; the hit share may differ from the screen's.

CC(=O)OC[C@]12[C@H](OC(C)=O)C(=O)[C@@H]3[C@@H](OC(C)=O)[C@@]14O[C@@]3(C)COC(=O)c1cccnc1[C@@H](C)[C@H](C)C(=O)O[C@@H]([C@H](O)[C@@H]2OC(C)=O)[C@]4(C)O
  Methyltransferases = i

Cc1cccc(C2CCCN(C(=O)c3cn(CCc4ccccc4)nn3)C2)c1 (stereo unspecified)
  Methyltransferases = i

C=C1CC2C3(C)C(OC(C)=O)CC(=O)OC(C)(C)C3C(O)C(OC(C)=O)C2(C)C2C(=O)OC(C)C(=O)C12C (stereo unspecified)
  Methyltransferases = i

COc1ccccc1CNC(=O)C1c2c(n(C)c3ccccc23)SCC(=O)N1c1ccc(C)cc1Cl (stereo unspecified)
  Methyltransferases = i

CC(C)Cc1nc2nccc(-c3ccsc3)n2n1
  Methyltransferases = i

O=[S+]1([O-])NC2(CCN(Cc3ccncc3)CC2)CNc2ccccc21
  Methyltransferases = i

O=c1[nH]c2ccc(S(=O)(=O)Nc3ccc(Br)cc3F)cc2[nH]1
  Methyltransferases = i

COc1ccccc1CNC(=O)C1(C)Cn2cnc(C(=O)NCc3ccc(F)cc3)c2C(=O)N1C1CC1 (stereo unspecified)
  Methyltransferases = i

CC(=O)N1CCN2C(=O)N(Cc3ccc(F)cc3)C[C@H]2C1
  Methyltransferases = i

CC(C)CCNC(=O)C1c2c(n(C)c3ccccc23)SCC(=O)N1c1ccc2c(c1)OCO2 (stereo unspecified)
  Methyltransferases = i

Clc1ccc(C2(c3ccc(-c4cn[nH]c4)cc3)CCNCC2)cc1
  Methyltransferases = +

Cc1ccc(CNC(=O)C2(C)Cn3nc(C(=O)NCc4cccs4)cc3C(=O)N2C)cc1 (stereo unspecified)
  Methyltransferases = i

O=C(CCn1ccc2cc(S(=O)(=O)N3CCCC3)ccc21)NCc1ccccc1Cl
  Methyltransferases = i

CCC(C)NC(=O)c1ccc2c(=O)n(C)c3nnc(SCC(=O)Nc4ccc(C)c(F)c4)n3c2c1 (stereo unspecified)
  Methyltransferases = i

COc1ccc(S(N)(=O)=O)cc1C(=O)N1CCC2(CN(C)C(=O)O2)C1 (stereo unspecified)
  Methyltransferases = i

O=C([C@H]1C[C@H](Oc2cccnc2)CN1C(=O)c1ccc2ccccc2n1)N1CCOCC1
  Methyltransferases = i

C[C@@]1(C2CCCC2)Cc2cc(OCC(=O)O)c(Cl)c(Cl)c2C1=O
  Methyltransferases = +

CC(CN1C(=O)c2cc3occc3n2CC1(C)C(=O)NC1CCCCCCC1)c1ccccc1 (stereo unspecified)
  Methyltransferases = i

CC(C)c1nc(N(C)S(C)(=O)=O)nc(-c2ccc(F)cc2)c1/C=C/[C@@H](O)C[C@@H](O)CC(=O)O
  Methyltransferases = ?

Cc1ccc(NC(=O)Cn2nc3n(C(C)C)c(=O)c4ccc(C(=O)NCC(C)C)cc4n3c2=O)cc1
  Methyltransferases = i

O=C(N[C@H](c1ccccn1)C1CC(O)C1)c1ccc(Cn2cccn2)o1 (stereo partly specified)
  Methyltransferases = i

CN(C)c1ccc(-c2nnc3n(Cc4ccccc4)c(=O)c4ccccc4n23)cc1
  Methyltransferases = i

O=C(/C=C/N1C[C@H]2C[C@@H]1CN2c1ccccn1)c1ccccc1O
  Methyltransferases = ?

CCC(C)NC(=O)CSc1nnc2n(Cc3ccccc3)c(=O)c3ccccc3n12 (stereo unspecified)
  Methyltransferases = i

CC1(c2noc(-c3cccnc3)n2)CCN(C(=O)CCC(=O)n2ncc3c(Cl)cccc32)CC1
  Methyltransferases = i

CCCCCC1CC1CC1CC1CCCCCCCC(=O)O (stereo unspecified)
  Methyltransferases = ?

CNC(=O)c1cc[nH]c1C1CCCN(Cc2ccc3c(c2)CCO3)C1 (stereo unspecified)
  Methyltransferases = i

C=CC(C)(O)CC/C=C(\C)C(=O)O[C@@H]1[C@@H](O)[C@H](OC(C)(C=C)CC/C=C(\C)C(=O)O)O[C@H](CO)[C@H]1OC(=O)/C(C)=C/CCC(C)(O)C=C (stereo partly specified)
  Methyltransferases = i

COC(=O)c1cc2n(n1)CC(C)(C(=O)NC1CCCCCC1)N(Cc1ccccc1OC)C2=O (stereo unspecified)
  Methyltransferases = i

CN1CCC(N[C@@H]2CCC[C@@H](C(=O)NC3CC3)CC(=O)N(C)C2)CC1
  Methyltransferases = i

Cc1ccc(Cn2c(=O)c3ccccc3n3c(=O)n(Cc4ccccc4)nc23)cc1
  Methyltransferases = i

CC1CCCCC1NC(=O)C1(C)Cn2c(nc3ccccc32)C(=O)N1Cc1ccco1 (stereo unspecified)
  Methyltransferases = i

CC1CC(C)CN(CCCN2C(=O)c3ccc(-c4ccco4)n3CC2(C)C(=O)NC2CCCCC2)C1 (stereo unspecified)
  Methyltransferases = i

C=CC(=O)Nc1ccc2ncnc(Nc3cccc(Br)c3)c2c1
  Methyltransferases = +

COCCOc1ccc(-c2noc([C@@H]3CCCN3C3CCCCC3)n2)cn1
  Methyltransferases = i

O=C(CCc1nnc2n(Cc3ccccc3Cl)c(=O)c3ccccc3n12)N1CCN(Cc2ccccc2)CC1
  Methyltransferases = i

COc1cc(C[C@@]2(O)CO[C@@H](c3ccc(O[C@@H]4O[C@H](CO)[C@@H](O)[C@H](O)[C@H]4O)c(OC)c3)[C@H]2CO)ccc1O
  Methyltransferases = i

CC(C)CCn1c(=O)c2ccccc2n2c(SCc3cccc(F)c3)nnc12
  Methyltransferases = i

CN(CC(=O)N(Cc1ccc(C2CCCCC2)cc1)c1ccc(C(=O)O)cc1)S(=O)(=O)c1c(F)c(F)c(F)c(F)c1F
  Methyltransferases = +

CC(=O)c1c(C)cc(O[C@@H]2O[C@H](CO)[C@@H](O)[C@H](O)[C@H]2O)cc1O
  Methyltransferases = i

CCCn1c(=O)oc2cc(NS(=O)(=O)c3ccc4c(c3)n(C)c(=O)n4C)ccc21
  Methyltransferases = i

CC(C)CCNC(=O)C1(C)Cn2c(cc3ccccc32)C(=O)N1Cc1ccco1 (stereo unspecified)
  Methyltransferases = i

O=C(CCc1nnc2ccc(NCCCN3CCCC3=O)nn12)NCc1ccc(F)cc1
  Methyltransferases = i

C=CCn1c(=O)c2ccc(C(=O)NC(C)CC)cc2n2c(=O)n(CC(=O)Nc3ccccc3)nc12 (stereo unspecified)
  Methyltransferases = i

COc1ccc(Cl)cc1NC(=O)CCC1CCCN(C(=O)CCc2scnc2C)C1 (stereo unspecified)
  Methyltransferases = i

CCOCCCN1C(=O)c2c(NC(C)=O)c3cc(F)ccc3n2CC1(C)C(=O)NCCC(C)C (stereo unspecified)
  Methyltransferases = i

CC1(C(=O)NC2CCCC2)Cn2c(ccc2-c2ccccc2)C(=O)N1CCC1=CCCCC1 (stereo unspecified)
  Methyltransferases = i

O=C(CCn1ccc2cc(S(=O)(=O)N3CCCCC3)ccc21)NC1CCCCC1
  Methyltransferases = i

Nc1ccc(-c2cnc(N)c(-c3ccc(Cl)cc3)c2)cn1
  Methyltransferases = +

O=C(Cn1ccc2cc(S(=O)(=O)N3CCCC3)ccc21)NCc1ccc(Cl)cc1
  Methyltransferases = i

CC(=O)OC[C@@]12[C@@H](OC(C)=O)C[C@@H](C)[C@](C)([C@@H]3C[C@H]4C=CO[C@H]4O3)[C@H]1CCC[C@]21CO1
  Methyltransferases = i

Cn1c(=O)n(C)c2cc(S(=O)(=O)N3CCCc4ccccc43)ccc21
  Methyltransferases = i

C=C1C(=O)O[C@@H]2C[C@H](C)[C@@H]3CC(=O)[C@H](O)[C@@]3(C)C[C@H]12
  Methyltransferases = ?

CCCn1c(=O)c2ccccc2n2c(SCc3cccc(F)c3)nnc12
  Methyltransferases = i

CC1CCC(NC(=O)C2(C)Cn3c(cc4occc43)C(=O)N2C2CCCCCC2)CC1 (stereo unspecified)
  Methyltransferases = i

Cn1c(=O)c2ccc(C(=O)NC3CCCCC3)cc2n2c(SCc3ccc(Cl)cc3)nnc12
  Methyltransferases = i

O=C(NS(=O)(=O)c1ccc(Br)s1)c1ccc(Cl)cc1Cl
  Methyltransferases = i

CCc1cc2c(cc3n2CC(C)(C(=O)NC2CCCCCC2)N(c2cc(C)cc(C)c2)C3=O)s1 (stereo unspecified)
  Methyltransferases = i

CC(=O)N1CCC(N2C[C@@H]3OCC(=O)N(Cc4ccccn4)[C@@H]3C2)CC1
  Methyltransferases = i

CN1C(=O)c2cc(C(=O)NCCc3cccs3)nn2CC1(C)C(=O)NCc1ccc(F)cc1 (stereo unspecified)
  Methyltransferases = i

OC[C@H]1O[C@@H](n2cnc3c2NC=NC[C@H]3O)C[C@@H]1O
  Methyltransferases = i

O=C(Cn1nc2n(Cc3ccc(F)cc3)c(=O)c3ccccc3n2c1=O)Nc1ccc2c(c1)OCO2
  Methyltransferases = i

CC(C)(C)c1cc2n(n1)CC(C)(C(=O)NCc1ccccc1)N(Cc1cccc(F)c1)C2=O (stereo unspecified)
  Methyltransferases = i

COc1ccc(N2C(=O)c3cc4ccc(OC)cc4n3CC2(C)C(=O)NC2CCCC2)c(OC)c1 (stereo unspecified)
  Methyltransferases = i

COCC1CN(C(C)=O)CC12CCN(C(=O)C1CC=CC1)CC2 (stereo unspecified)
  Methyltransferases = i

C=C1CC[C@@H]2[C@](C)(CO)[C@H](O)CC[C@@]2(C)[C@@H]1C/C=C1/C(=O)OCC1OC(=O)/C(=C/CO)C(O)C[C@@H]1C(=C)CC[C@@H]2[C@](C)(CO)[C@H](O)CC[C@]21C (stereo partly specified)
  Methyltransferases = i

O=C(/C=C/c1ccc(O)cc1)OC[C@@]1(O)C=C[C@@H]2C(C(=O)O)=CO[C@@H](O[C@@H]3O[C@H](CO)[C@@H](O)[C@H](O)[C@H]3O)[C@@H]21
  Methyltransferases = +

Cc1cc(C(=O)N2CCCCc3ccccc32)ccc1CNC(=O)N1CCC[C@H]1C(=O)N(C)C
  Methyltransferases = i

NCC(=O)N1CCC2(CC1)CN([S+](=O)([O-])c1ccccc1)CCO2
  Methyltransferases = i

CCCOc1ccc2c(-c3ccccc3)cc(=O)oc2c1
  Methyltransferases = i

Cc1ccc(N2C(=O)c3cc4oc(C)cc4n3CC2(C)C(=O)NC2CCCCCC2)cc1 (stereo unspecified)
  Methyltransferases = i

C=C1[C@@H](OC(C)=O)CC[C@@]2(C)[C@@H](OC(C)=O)[C@H](OC(C)=O)C3=C(C)C[C@H](OC(=O)C(C)CC)[C@@H]([C@@H](OC(C)=O)[C@H]12)C3(C)C (stereo partly specified)
  Methyltransferases = i

O=C1CC(c2ccccc2)N(C(=O)CNC(=O)c2n[nH]c3ccccc23)CCCCCCN1 (stereo unspecified)
  Methyltransferases = i

CCCNC(=O)C(CC)n1ccc2cc(S(=O)(=O)N3CCCCC3)ccc21 (stereo unspecified)
  Methyltransferases = i

COC(=O)c1cc2n(n1)CC(C)(C(=O)NC1CCCCCC1)N(Cc1ccccc1)C2=O (stereo unspecified)
  Methyltransferases = i

Cc1ccc(S(=O)(=O)c2nnn3c2nc(NC2CC2)c2cc(Cl)ccc23)cc1C
  Methyltransferases = i

CCCN1C(=O)c2c(C(=O)NCCc3ccccc3)ncn2CC1(C)C(=O)NCCC(C)C (stereo unspecified)
  Methyltransferases = i

Cc1cc(SCc2sc(-c3ccc(C(F)(F)F)cc3)nc2C)ccc1OCC(=O)O
  Methyltransferases = ?

CCc1ccc(S(=O)(=O)c2nnn3c2nc(NCCNC(C)=O)c2cc(Cl)ccc23)cc1
  Methyltransferases = i

CCOCCCNC(=O)N1CCC2(CC1)CC(N(Cc1ccc(F)cc1)C1CC1)CCO2 (stereo unspecified)
  Methyltransferases = i

COCc1c(O)c(C(=O)O)c(C)c2c1OC(=O)c1c(C)cc(O)c(CO)c1O2
  Methyltransferases = +

CCCN1C(=O)c2c(C(=O)NCCc3ccccc3C)ncn2CC1(C)C(=O)NCCC(C)C (stereo unspecified)
  Methyltransferases = i

CC1(C(=O)NCc2ccccc2)Cn2cnc(C(=O)NCCc3ccc(Cl)cc3)c2C(=O)N1C1CC1 (stereo unspecified)
  Methyltransferases = i

CC(C)NC(=O)C[C@@H]1O[C@H](CNC(=O)C2CC2)[C@@H](O)[C@H]1O
  Methyltransferases = i

CCCN1C[C@H](CSC)C[C@@H]2c3cccc4[nH]cc(c34)C[C@H]21
  Methyltransferases = i

O=C(CCC1CCCN(S(=O)(=O)c2ccccc2)C1)NCCCN1CCCC1=O (stereo unspecified)
  Methyltransferases = i

COc1ccc(-c2nc(-c3ccc(S(=O)(=O)N4CCCCC4)cc3)no2)cc1
  Methyltransferases = i

COc1ccc(CN2CCCC3(CC(c4cccc(C(F)(F)F)c4)=NO3)C2)cc1 (stereo unspecified)
  Methyltransferases = i

CC(C)Cn1c(=O)c2ccccc2n2c(CCC(=O)N3CCN(c4ccc(F)cc4)CC3)nnc12
  Methyltransferases = ?

CC(C)CCn1c(=O)c2ccc(C(=O)NCC(C)C)cc2n2c(=O)n(CC(=O)c3ccccc3)nc12
  Methyltransferases = i

A second format for some results above.
SMILES | Methyltransferases
COCc1c(O)c(C(=O)O)c(C)c2c1OC(=O)c1c(C)cc(O)c(CO)c1O2 | +
CCCN1C(=O)c2c(C(=O)NCCc3ccccc3C)ncn2CC1(C)C(=O)NCCC(C)C (stereo unspecified) | i
CC1(C(=O)NCc2ccccc2)Cn2cnc(C(=O)NCCc3ccc(Cl)cc3)c2C(=O)N1C1CC1 (stereo unspecified) | i
CC(C)NC(=O)C[C@@H]1O[C@H](CNC(=O)C2CC2)[C@@H](O)[C@H]1O | i

Further entries follow.
CSc1ccc(CNC(=O)C2(c3ccc(NS(C)(=O)=O)cc3)CCCCC2)cc1
  Methyltransferases = i

O=C1CCC=CC1(O)C(=O)OCc1ccccc1O[C@@H]1O[C@H](CO)[C@@H](O)[C@H](O)[C@H]1O (stereo partly specified)
  Methyltransferases = i

COc1ccccc1CNC(=O)C1(C)Cn2nc(-c3ccccc3)cc2C(=O)N1c1ccc(C)c(Cl)c1 (stereo unspecified)
  Methyltransferases = i

CSc1cccc(N2C(=O)c3cc(C(C)(C)C)nn3CC2(C)C(=O)NCCC(C)C)c1 (stereo unspecified)
  Methyltransferases = i

CC(=O)Nc1ccc(-c2nnc3n(Cc4ccc(F)cc4)c(=O)c4ccccc4n23)cc1
  Methyltransferases = i

CC(C)C(=O)NCC(=O)N1CCC2(CC1)Nc1ccccc1NC2=O
  Methyltransferases = i

CCC(C)NC(=O)Cn1nc(C)c2sc(-c3ccccc3)nc2c1=O (stereo unspecified)
  Methyltransferases = i
